# Ecoli growth = blocks Escherichia coli growth. OD600, 23 h; hits give low values. OD600 absorbance (no concentration beside the values). actives 0.21% (n = 330,000). AID 1053175;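 active = OD600 absorbance below the run mean of sample wells minus 3.6 SD, in any replicate, cut at about 0.56 in these data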;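 note: stock transfer was 300 nL into about 60 µL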
# Bfl-1 A1 inh = inhibitors of the anti-apoptotic protein A1, read as caspase activation; MEF A1-2A-BIM cells, Caspase-Glo 3/7 luminescence, 3 h; percent of clofoctol response, vehicle zero; caspase activation, % (concentration not given with the values); actives 0.066% (n = 330,000); AID 2462;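 active = over half of replicate activation scores above 10%, or exactly half above 10 with the replicate mean above 10; inconclusive = replicate mean below 10 yet half the replicates above 10; inactive = over half of replicates below 10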;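 note: wells of about 30 µL received 50 nL stock; many hits fall short of the cut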
# Vif A3G = HIV-1 Vif–A3G interaction blockers – biochemical, TR-FRET, GST-Vif 1-94, biotin-A3G peptide, dose response retest, primary screen (AID 1117319); TR-FRET GST-Vif / biotin-A3G peptide binding; higher % means a stronger effect; test concentration not given here; strong numbers were not always called active; inhibition, %; hits with a dose series show IC50 in µM; actives 0.57% (n = 260,000);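 active = above the screen mean plus three standard deviations and confirmed in dose response; inconclusive = results disagree or hit not tested in dose response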;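 note: Vif residues 1-94 fused to GST binding biotinylated APOBEC3G peptide 110-148; 0% = full assay without inhibitor and 100% = GST in place of GST-Vif; retest series ran down from 100 µM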
# B2AR ag = activates human beta-2 adrenergic receptor causing internalization. P07550. Am2.2-beta2AR cells, FAP receptor internalization, flow cytometry; reference of the scale not given here. response, % (concentration not given with the values). actives 0.43% (n = 340,000). AID 504454;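 active = response above a set limit, near 3 SD of response in nonfluorescent compounds, cut at about 42% in these data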;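 note: stock transfer was 100 nL into about 11 µL; a reference agonist was the positive control; negative values mostly stem from fluorescent compounds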
# HNF4A DNA FP = change in binding of human HNF4 alpha to DNA. P41235. HNF4a-FITC DNA binding, fluorescence polarization, 1 h. activity change, % at 10 µM. actives 0.3% (n = 360,000); in the data active = activity change above about 30%, passing the limit was not always enough;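 note: controls were the assay level and a saturating level of protein; the project sought stronger binding though the title names inhibitors; some compounds called inactive have numbers as strong as hits; positive values seem to mean higher polarization but the record does not say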
# LANA-H2A inh = blocks KSHV LANA binding to histone H2A/H2B; AID 2629; actives 0.6% (n = 320,000); Q9QR71; cell-free LANA-H2A/H2B peptide, fluorescence polarization; inhibition, % (test concentration not listed); in the data active = inhibition mostly above about 10%, no sharp cut-off; inactive = mostly below about 6.7%;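 note: stock transfer was 7.5 nL into about 10 µL; 0% = median of vehicle wells and 100% = median of positive control wells; one replicate is shown; the record names a cut of 25% in any replicate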
# Target sequence (Q9QR71 whole entry, looked up): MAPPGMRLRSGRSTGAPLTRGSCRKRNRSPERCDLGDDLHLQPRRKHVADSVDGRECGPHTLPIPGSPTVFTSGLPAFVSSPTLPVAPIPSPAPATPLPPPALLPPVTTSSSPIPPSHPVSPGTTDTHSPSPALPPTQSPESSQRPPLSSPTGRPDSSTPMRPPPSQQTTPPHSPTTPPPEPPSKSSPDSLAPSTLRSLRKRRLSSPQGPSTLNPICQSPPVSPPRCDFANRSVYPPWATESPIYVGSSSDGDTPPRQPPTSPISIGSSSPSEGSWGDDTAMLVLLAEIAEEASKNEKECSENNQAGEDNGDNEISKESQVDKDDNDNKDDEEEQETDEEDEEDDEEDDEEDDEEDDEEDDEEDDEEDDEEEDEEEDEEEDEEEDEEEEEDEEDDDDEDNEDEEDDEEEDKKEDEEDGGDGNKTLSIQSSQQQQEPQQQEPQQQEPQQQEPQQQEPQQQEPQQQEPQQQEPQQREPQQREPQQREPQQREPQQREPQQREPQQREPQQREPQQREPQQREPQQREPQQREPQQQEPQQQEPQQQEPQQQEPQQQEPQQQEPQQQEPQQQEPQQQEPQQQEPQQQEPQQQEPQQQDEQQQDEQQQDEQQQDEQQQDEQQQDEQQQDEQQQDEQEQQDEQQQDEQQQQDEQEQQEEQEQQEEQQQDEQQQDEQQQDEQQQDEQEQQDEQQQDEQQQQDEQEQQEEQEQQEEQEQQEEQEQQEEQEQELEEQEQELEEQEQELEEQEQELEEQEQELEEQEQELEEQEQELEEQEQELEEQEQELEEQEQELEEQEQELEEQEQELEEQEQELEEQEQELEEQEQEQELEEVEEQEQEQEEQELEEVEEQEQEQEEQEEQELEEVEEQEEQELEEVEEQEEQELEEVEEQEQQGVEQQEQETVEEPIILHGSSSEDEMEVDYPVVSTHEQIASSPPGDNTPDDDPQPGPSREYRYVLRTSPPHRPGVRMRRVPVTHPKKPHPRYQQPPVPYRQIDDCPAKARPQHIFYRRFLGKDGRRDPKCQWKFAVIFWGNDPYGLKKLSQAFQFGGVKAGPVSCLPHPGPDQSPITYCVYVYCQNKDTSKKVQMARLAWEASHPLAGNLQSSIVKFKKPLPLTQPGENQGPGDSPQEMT
# UCH37 inh = inhibitors of human deubiquitinating enzyme UCH37; Q9Y5K5; purified proteasome/UCH37, Ub-AMC cleavage fluorescence; actives 0.33% (n = 330,000); inhibition, % (no concentration beside the values);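 active = mean of two replicates above 20%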;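 note: 0% = compound-free wells with enzyme and 100% = wells lacking proteasome; stock transfer was 100 nL into about 20 µL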
#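 system = Proteasome-associated human UCH37 deubiquitinase | amount = 0.15 nM proteasome as dispensed | medium = pH 7.4 Tris-HCl (50 mM) with ovalbumin, ATP-MgCl2, DTT | incubation = 30 min preincubation with enzyme, 25 min cleavage at room temperature | detection = AMC fluorescence 355/460 nm | read-out basis = percent inhibition | controls = no-proteasome and no-compound wells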
# * hit, by the source's call; ? = inconclusive; · = no result given.
SMILES,Ecoli growth,Bfl-1 A1 inh,Vif A3G,B2AR ag,HNF4A DNA FP,LANA-H2A inh,UCH37 inh
CC(C)CC(NC(=O)C(NC(=O)C(Cc1ccc(OCc2ccccc2)cc1)NC(=O)OC(C)(C)C)C(C)C)C(N)=O (stereo not given),0.701,-0.2,·,-0.8,-3.0,1.2,-1.7
O=C(N/N=C/c1cc(Cl)cc([N+](=O)[O-])c1O)C1CC1,·,0.3,·,3.2,0.2,4.2,·
COc1ccc(Nc2nnc(SC(C(=O)Nc3cc(C)ccc3C)c3ccccc3)s2)cc1 (stereo not given),0.714,0.3,·,7.9,5.6,0.7,1.9
CCN(c1ccccc1)S(=O)(=O)c1ccc(OC)c(NC(=O)C2=NN(c3ccccc3)C(=O)CC2)c1,0.659,·,-3.6%,8.4,1.4,·,-4.6
CC1(C)CC(=O)c2cnc(N3CCc4ccccc43)nc2C1,0.649,-0.7,-0.6%,1.1,-0.7,-9.4,-64.8
Cc1ccc(S(=O)(=O)NCC(c2ccco2)S(=O)(=O)c2ccccc2)cc1 (stereo not given),0.656,-0.1,-5.8%,-5.8,-0.3,-7.3,4.7
Cc1ccc(C)c(OCCCCN2CCNCC2)c1C,0.683,0.0,-4.0%,-9.4,-0.3,3.0,5.8
COc1ccc(OC)c(CNC(=O)CCC(=O)N2Cc3ccccc3Oc3ncccc32)c1,0.692,-0.1,·,-1.7,-0.7,1.5,0.2
CCC(CC)c1nnc(NC(=O)C2CCN(C(=O)c3ccco3)CC2)s1,0.645,0.0,1.8%,-3.8,0.8,1.5,4.1
CCOC(=O)CC1=CCc2c1ccc(OC)c2OC,0.67,·,-4.0%,1.6,6.0,·,-4.1
COc1ccccc1N(C)S(=O)(=O)c1ccc(Cl)c(C(=O)NCc2cccnc2)c1,0.664,0.0,-6.8%,-0.1,1.9,2.2,4.9
N#Cc1ccc(CSc2nnc(NC(=O)C3CC(=O)N(c4ccc5c(c4)OCCO5)C3)s2)cc1 (stereo not given),·,-0.3,4.9%,-0.1,-3.7,-4.9,3.2
O=C(COc1ccccc1Cl)Nc1ccc(C(=O)O)cc1NC(=O)COc1ccccc1Cl,0.65,0.3,-2.6%,3.1,3.5,2.0,2.7
CC(C)C(NC(=O)c1ccc(S(=O)(=O)N2CCOCC2)cc1)c1nc2ccccc2[nH]1 (stereo not given),0.747,0.8,-4.7%,-1.7,6.8,4.9,2.0
COc1ccc(NC(=O)C2CCN(S(=O)(=O)c3cccc4cccnc34)CC2)cc1OC,0.76,0.1,5.6%,-6.0,3.2,-3.1,1.6
Cc1cc(C)c(NC(=O)CN2C(=O)NC3(CCc4ccccc43)C2=O)c(Cl)c1 (stereo not given),0.714,-0.9,·,-0.1,-2.6,-1.9,0.8
CN1CCC(N(C)C(=O)c2ccc(Cl)c(S(=O)(=O)N3CCOCC3)c2)CC1,0.671,·,-3.6%,6.0,0.6,·,2.1
Cc1cc(-n2cnc(-c3cn(C)nc3C)n2)no1,·,0.8,19.2%,-12.0,4.0,-1.1,·
Fc1ccc(NC(=S)N2CCOCC2)cc1Cl,0.644,0.3,1.2%,1.0,2.0,-0.8,-0.8
CC(C)CN(C(=O)CC1OC(=O)c2ccccc21)c1c(N)n(Cc2ccccc2)c(=O)[nH]c1=O (stereo not given),0.703,0.9,-0.3%,-0.2,1.3,0.5,0.6
Cc1cccc(CCN2C(Nc3ccccc3)=NC[C@@H]2CC(C)C)c1,·,-0.1,·,0.2,3.4,-0.7,2.0
COc1ccc(Cn2nnnc2C(c2cc3ccc(OC)cc3[nH]c2=O)N2CCC(C)CC2)cc1 (stereo not given),0.671,0.7,?,-2.7,4.9,2.2,-11.0
CC1CCCc2sc3nc(N4CCN(CCO)CC4)n4ncnc4c3c21 (stereo not given),0.658,0.5,1.4%,12.8,3.5,-2.9,-1.3
CCOC(=O)C[C@H]1c2ccccc2S(=O)(=O)N1Cc1cccc(C(F)(F)F)c1,·,3.3,·,0.3,3.3,-0.7,1.1
O=C(NC1CSCC1OC(=O)c1ccccc1)c1ccccc1 (stereo not given),0.706,1.1,18.1%,-5.4,0.0,-6.1,2.7
Cc1ccc(C)c(CN2CCN(c3ncccn3)CC2)c1,0.678,-0.5,·,-2.1,3.1,-7.1,1.7
Cc1c(C(=O)N2CCN(c3ccc(C(F)(F)F)cn3)CC2)oc2ccccc12,0.73,1.1,7.2%,6.6,-1.8,-3.5,2.2
COc1ccc(CC(C(=O)Nc2cc(C)ccc2C)/C(N)=N/O)cc1 (stereo not given),0.626,0.7,-0.5%,5.8,-4.3,-5.5,1.8
COC(=O)c1sc(NC(=O)CSc2nnnn2-c2cccc(OC)c2)nc1C,0.716,0.2,0.9%,1.3,2.5,2.8,-1.4
O=C1C=C(c2cc3ccccc3o2)C[C@@H](c2ccc(F)cc2)C1,0.813,0.4,·,9.4,-0.1,4.2,5.7
COc1cc2c(cc1OC)-c1nncn1C(C)(C)C2,0.67,0.6,-10.6%,10.3,-2.1,-6.1,-0.7
O=C(CSC(=S)N1CCCC1)N/N=C/c1c(O)[nH]c(=S)[nH]c1=O,0.677,0.8,·,-6.6,4.9,4.1,9.2
O=C(CSc1cccc(C(F)(F)F)c1)Nc1nnc(C2CC2)s1,0.73,-1.3,·,-11.0,3.0,-0.9,4.3
Cc1ncc(CO)c(CNc2ccc(Oc3ccccc3)cc2)c1O,0.665,-0.7,-0.9%,-11.4,-0.5,0.0,-1.2
NC(=O)c1ccc(N2CCC(C(N)=O)CC2)c([N+](=O)[O-])c1,0.713,0.1,·,-5.0,4.1,2.6,5.9
COC(=O)N1c2ccccc2CCc2ccccc21,0.647,0.6,5.2%,1.5,2.7,2.3,4.2
C=CCOc1ccc(/C(O)=C2\C(=O)C(=O)N(CCN(C)C)C2c2cccs2)cc1 (stereo not given),0.71,-1.7,0.5%,6.5,2.9,-1.6,23.9*
CCCCC(=O)NNC(=O)N1c2ccccc2Sc2ccccc21,0.64,1.3,-0.2%,-2.1,0.0,0.5,4.6
COC(=O)c1ccc(-c2noc(CN(Cc3ccncc3)CC3CCCO3)n2)cc1 (stereo not given),0.666,0.2,-0.7%,-2.8,3.5,-0.5,-3.8
O=C(NCCc1c[nH]c2ccccc12)C(F)(F)C(F)F,0.627,0.4,-4.6%,5.0,3.8,4.8,8.8
CC(C)(C)c1[nH]nc2c1C(c1ccncc1)C(C#N)=C(N)O2 (stereo not given),0.667,0.4,4.4%,1.3,6.4,-2.7,2.3
CCC(C)(C)C1CCc2c(sc(NC(=O)c3ccoc3C)c2C(N)=O)C1 (stereo not given),0.703,-1.1,5.0%,5.9,0.0,-1.0,-89.6
CCOC(=O)N1CCN(C(=O)CSc2nnc(Cc3ccccc3)o2)CC1,0.751,0.3,9.9%,-3.0,2.2,0.2,4.4
COc1ccccc1OCC(=O)NC1CCSc2ccccc21 (stereo not given),0.656,1.0,-1.0%,-0.8,1.6,-3.8,0.0
Cc1[nH]c2ccccc2c1C(=O)CN1C(=O)NC2(CC(C)CC(C)(C)C2)C1=O (stereo not given),0.695,0.3,-10.3%,-4.5,2.6,-0.2,1.9
CCOc1ccc(NC(=O)C2CCN(C(=O)NCc3ccccc3)CC2)cc1,0.658,0.6,0.9%,2.0,-4.0,5.2,-0.3
O=C(c1ccc(N2CCN(C(=O)c3ccccc3Br)CC2)cc1)c1cccc(F)c1,0.71,-0.4,·,20.9,2.2,8.1,-12.3
COc1ccc(N(C(=O)c2ccco2)C(C(=O)NC2CCCC2)c2cccs2)cc1OC (stereo not given),0.694,0.4,16.5%,6.7,2.5,3.8,4.0
CC(=O)c1ccc(Nc2nc(C)cc(C)n2)cc1,0.622,-0.8,-5.5%,-2.0,-1.9,2.0,1.9
CCCc1nc2ccccc2c(=O)n1N,0.734,-0.4,?,-5.5,1.7,-2.0,-0.3
CCCn1c(N2CCN(C(=O)N3CCCCC3)CC2)nc2ccccc21,0.669,0.7,2.4%,-21.4,-0.4,-2.0,1.3
Cc1[nH]c2ccccc2c1CCO,0.689,0.4,-0.7%,2.5,-1.1,-1.4,3.4
CCS(=O)(=O)Nc1cc(C(=O)O)ccc1C,0.67,0.1,5.1%,1.5,-6.0,1.2,0.4
Nc1c(-c2ccc(Cl)cc2)cnn1-c1cc(C(F)(F)F)cc(C(F)(F)F)c1,0.688,-0.1,-0.9%,-1.2,-0.2,-1.2,4.2
O=C(CSc1nc2ccccc2o1)N/N=C/c1ccco1,·,-1.0,-3.4%,-9.9,5.1,3.4,·
CC(=O)NC(c1ccccc1)c1cc(Cl)c2cccnc2c1O (stereo not given),0.634,0.8,·,1.6,2.6,0.1,3.4
CCOc1ccc(CCNC(=O)Cn2ccc3ccccc3c2=O)cc1OCC,0.733,-1.0,-2.2%,10.4,0.1,-3.4,-0.8
CCN1CCN(c2ccc(S(=O)(=O)N3CCOCC3)cc2NC(=O)/C=C/c2ccc(OC)cc2OC)CC1,0.713,0.7,-1.7%,5.5,-1.6,1.9,4.4
Cc1ccc(N2CC(C(=O)Nc3ccc(S(=O)(=O)N4CCCC4)cc3)CC2=O)cc1C (stereo not given),0.646,1.3,·,4.7,4.0,-0.6,1.8
CCCCn1c2c(c(=N)c3c1CCC3)CCC2,·,0.2,10.8%,7.7,-2.0,-0.3,4.0

# Ordered by the number under UCH37 inh (ascending): some entries from above
Compound | UCH37 inh
CCOc1ccc(CCNC(=O)Cn2ccc3ccccc3c2=O)cc1OCC | -0.8
CC(=O)c1ccc(Nc2nc(C)cc(C)n2)cc1 | 1.9
CC(=O)NC(c1ccccc1)c1cc(Cl)c2cccnc2c1O (stereo not given) | 3.4

# Next part
SMILES,Ecoli growth,Bfl-1 A1 inh,Vif A3G,B2AR ag,HNF4A DNA FP,LANA-H2A inh,UCH37 inh
CCCCN(C)S(=O)(=O)c1ccc(C(=O)N=c2sc3cc(NC(C)=O)ccc3n2C)cc1,·,0.1,·,-5.6,1.6,-0.2,·
CN(C)S(=O)(=O)c1ccc(C(=O)NCC(=O)N/N=C/c2ccco2)cc1,·,-0.3,-5.9%,-4.0,5.8,2.5,·
COc1cc(NC(=O)CN(C)S(=O)(=O)c2ccc(-c3ccc(=O)[nH]n3)s2)cc(OC)c1,0.697,0.4,·,1.6,1.6,-2.9,5.5
N/C(=N\OC(=O)c1ccc(F)cc1)c1nonc1N,·,-7.8,·,3.6,5.1,2.0,·
CCCCN(C(=O)CCC(=O)Nc1cc(C)on1)C(C(=O)NC1CCCC1)c1ccccc1OCC (stereo not given),0.717,-0.8,-0.4%,-3.3,-1.6,3.1,2.4
COc1cc(OC)cc(N2CCN(S(=O)(=O)c3ccc(-n4cnnn4)cc3)CC2)c1,0.688,0.2,0.9%,8.6,-2.0,-4.7,0.6
COc1cccc(CC2(CO)CCCN(Cc3cc(F)ccc3-n3cccn3)C2)c1 (stereo not given),0.677,0.0,-3.1%,1.6,3.4,-4.4,2.3
CCCCN(CC)CCNC(=O)c1cc2c(=O)n(C)c3ccccc3c2s1,·,0.3,·,14.1,1.7,1.8,·
COc1cccc(NC(=O)c2ccc(N3C(=O)C4CCC(C)CC4C3=O)cc2)c1 (stereo not given),0.706,1.6,·,29.3,-2.1,-1.4,2.9
COC(=O)c1ccc(C23CC4(C2)[C@H](CN(C)[C@@H]4c2ccccc2)C3c2ccc(C(F)(F)F)cc2)cc1 (stereo not given in full),·,1.3,27.2%,-1.1,-1.1,4.0,0.3
CC(C)(C)c1ccc(/C=C/C(=O)N2CCOCC2)cc1,0.693,1.4,0.9%,4.7,-2.2,-4.6,0.1

# High-throughput results as filed in PubChem.
